Screening data: PubChem BioAssay, National Center for Advancing Translational Sciences (NCATS)
TRPML1 agonist = activates the human TRPML1 channel; TRPML1-expressing cells, Ca2+ dye fluorescence, FDSS; host cell line not named in the record; reference of the full effect not given here; activation, % (concentration not given with the values); 0.12% of 410,000 active; AID 624414; in the data active = activation above about 50%; inconclusive = about 30% to 50%; inactive = below about 30%; also: 0% is about no effect; the text of the record puts the active cut at 80%
Target sequence (Q9GZU1 whole entry, looked up): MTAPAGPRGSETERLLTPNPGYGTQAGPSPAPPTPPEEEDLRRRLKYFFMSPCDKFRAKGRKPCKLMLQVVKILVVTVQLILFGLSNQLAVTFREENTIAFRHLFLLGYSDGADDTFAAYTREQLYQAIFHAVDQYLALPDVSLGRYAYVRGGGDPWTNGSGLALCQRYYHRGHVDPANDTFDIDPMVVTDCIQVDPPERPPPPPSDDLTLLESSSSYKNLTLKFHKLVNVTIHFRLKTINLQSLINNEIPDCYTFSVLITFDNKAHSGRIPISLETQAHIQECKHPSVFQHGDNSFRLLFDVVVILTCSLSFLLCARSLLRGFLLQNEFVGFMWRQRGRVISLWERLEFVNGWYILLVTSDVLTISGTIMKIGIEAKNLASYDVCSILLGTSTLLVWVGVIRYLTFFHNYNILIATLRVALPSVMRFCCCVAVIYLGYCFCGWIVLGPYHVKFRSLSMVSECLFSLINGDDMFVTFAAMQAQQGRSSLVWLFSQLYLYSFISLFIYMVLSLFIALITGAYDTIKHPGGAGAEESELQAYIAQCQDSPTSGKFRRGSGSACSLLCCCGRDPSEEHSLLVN
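Cells: TRPML1-DL, 1X Tet inducer, ~16 h at 37 degrees C/5% CO2. Dye: ABD Ca8 no-wash + quencher, 45-90 min RT. Read: 10 s baseline, compound add, 110 s agonist phase; 54-4 EC80 (4uM final), 110 s antagonist phase.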
Six1-Eya2 blk = blocks human Six1 binding to Eya2; Q15475+O00167; AlphaScreen GST-Six1/His-Eya2 binding, biochemical; active compounds read low; control for the full effect not named in the record; activity change, % (no concentration beside the values); 0.56% of 360,000 active; in the data active = activity change below about -65%; inconclusive = about -30% to -65%; inactive = above about -30%; also: % is scaled to controls: 0 for no effect and ±100 for the full control effect
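Compounds are tested against tagged Six1 and Eya2 proteins bridged by glutathione donor and nickel acceptor beads; after a one-hour incubation at 37 °C without light, AlphaScreen emission is recorded.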
PINK1 modulator = PINK1 expression modulation. Potency, µM (series often up to 76.6 µM), for inactives: at the top dose activation (PINK1 increase), actives largely listed as activators. PINK1 immunofluorescence, high-content cytometry, 24 h. 0.2% of 410,000 active; active = well fitted activation curve with a large enough effect; inconclusive = small, poorly fitted or top-dose-only effect; inactive = flat fitted curve, though single readings scatter; cell line not stated here;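 also: potency is read from the fitted curve at half-maximal effect; % of control where 0% means no effect; nearly all actives have a fitted effect of over 65% in size; a mitochondrial uncoupler was the plate control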
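Fluorescence from anti-PINK1 antibody, together with nuclear and cell stains, was scanned on a laser-scanning cytometer. Before staining, stable-line cells were incubated 24 hours with compounds at 5 concentrations; primary antibody 12 h at 10 degrees C.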
TRPML1 inh = human mucolipin-1 channel inhibition; Q9GZU1; TRPML1-inducible cells, Ca2+ dye fluorescence, FDSS; active compounds read low; inhibition of EC80 agonist-evoked calcium signal; activity change, negative = inhibition, % (test concentration not listed); 0.02% of 390,000 active; in the data active means activity change below about -50%; inconclusive means about -30% to -50%; inactive means above about -30%;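 also: stimulus is agonist 54-4 at its EC80 concentration; % is scaled to controls: 0 for no effect and ±100 for the full control effect; compound concentration not given in the record; the text of the record puts the active cut at -80%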
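TRPML1-DL cells, Tet-induced overnight (~16 h, 37 °C) at 1,500 cells/well, were loaded with Ca8 no-wash dye plus quencher for 45-90 min at room temperature. Compounds were pinned during FDSS kinetic reading; agonist 54-4 at EC80 (4 uM final) then added.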
D2 agonist = agonists of human D2 dopamine receptor (beta-arrestin); 0.084% of 360,000 active; activation, % (test concentration not listed); DiscoveRx PathHunter D2 beta-arrestin, luminescence, 90 min; 100% = 57 uM dopamine signal; AID 624465; P14416; in the data active = activation above about 40%; inconclusive = about 15% to 40%; inactive = below about 15%; also: compound concentration not given in the record; the text of the record calls up to 30% inactive
Target sequence (P14416 whole entry, looked up): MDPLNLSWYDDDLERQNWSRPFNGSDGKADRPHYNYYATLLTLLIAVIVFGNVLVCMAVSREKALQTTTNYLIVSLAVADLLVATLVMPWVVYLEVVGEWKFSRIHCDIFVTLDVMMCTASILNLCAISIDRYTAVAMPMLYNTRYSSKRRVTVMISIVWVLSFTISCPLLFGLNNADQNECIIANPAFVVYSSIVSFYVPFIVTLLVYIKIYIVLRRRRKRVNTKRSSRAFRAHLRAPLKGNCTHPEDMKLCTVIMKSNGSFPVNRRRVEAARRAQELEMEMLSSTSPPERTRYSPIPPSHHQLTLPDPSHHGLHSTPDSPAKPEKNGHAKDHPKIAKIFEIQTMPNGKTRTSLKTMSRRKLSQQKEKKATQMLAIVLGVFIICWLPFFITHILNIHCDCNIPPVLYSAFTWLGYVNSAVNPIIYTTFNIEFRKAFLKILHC
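Agonist mode: compounds alone added to overnight-plated D2 PathHunter cells for 90 min at 37 C, with 57 uM final dopamine (EC100) defining full response. Beta-arrestin recruitment detected by chemiluminescent reagent, read after 1 h at ambient temperature.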
CtBP-E1A blk = blocks the CtBP interaction with E1A | 0.49% of 340,000 active | activity change, % (concentration not given with the values) | AID 651724 | AlphaScreen GST-E1A/His-CtBP binding, 1536-well; active compounds read low; control for the full effect not named in the record; in the data active means activity change below about -65%; inconclusive means about -30% to -65%; inactive means above about -30%; also: % is scaled to controls: 0 for no effect and ±100 for the full control effect
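Steps: dispense buffer (Tris pH 8.0, NaCl 300 mM, TCEP 1 mM, BSA, Tween 20); add 5X protein mix (GST-E1A, His-CtBP, 125 nM each); pin 23 nL compound; 2 h at 37 °C, dark; add 5X beads (50 ug/mL); 1 h; read.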
Starred values were filed as active, the others as inactive; ? = inconclusive; · = not tested or not shown; & = joins results of further samples; [ ] = remark or other dose. The order is random; any-hit rate near 1%.

SMILES | TRPML1 agonist | Six1-Eya2 blk | PINK1 modulator | TRPML1 inh | D2 agonist | CtBP-E1A blk
CC(C)S(=O)(=O)c1csc(NC(=O)Nc2ccc(Cl)cc2)c1Cl | 0.0 | -1 | 16µM* | 4 | -1.4 | 3
COc1cc(C)ccc1OCc1cc(C(=O)NCCN2CCOCC2)no1 | -0.4 | 4 | -1.5% | -10 | -3.1 | 0
CCN(c1ccccc1)S(=O)(=O)c1ccc(C(=O)NCCCn2ccnc2)cc1 | -0.3 | -2 | 1.9% | 4 | -3.4 | -2
CC(Sc1nc(-c2ccccc2)cs1)C(=O)Nc1ccc(Cl)cn1 (centres undefined) | 1.8 | -9 | 6.3% | 9 | -4.7 | 10
O=C(NNc1nc2ccc(F)cc2s1)c1cccc(F)c1 | 1.0 | -1 | ? | 26 | 5.8 | 4
Cc1cccc(Sc2ccc([N+](=O)[O-])cn2)c1 | 3.1 | -20 | 1.4% | 11 | 3.4 | -9
CC1CCCC/C1=N\NC(=S)Nc1ccccc1 (centres undefined) | 1.4 | 3 | 0.8% | 8 | -5.1 | -7
CCN(CCn1cccn1)C(=O)C1CCC(=O)N(CCN2CCOCC2)C1 (centres undefined) | 0.8 | 22 | -1.6% | -7 | -0.4 | -6
CN[C@@H](CO)C(=O)NC[C@H]1O[C@@H](n2cc(C)c(=O)[nH]c2=O)C[C@@H]1O | -0.3 | 0 | 0.5% | -18 | -6.2 | 0
O=C(c1ccc(CN2CCc3ccccc3C2)cc1)N1CCN(c2ccccc2)CC1 | -1.0 | -9 | -0.2% | -10 | 0.7 | -1
COc1ccc(CC(=O)OC(C)C(=O)Nc2ccc(Cl)cn2)cc1 (centres undefined) | 1.7 | -1 | 0.9% | 3 | 1.2 | -3
O=C(NCCN1CCN(S(=O)(=O)c2ccc([N+](=O)[O-])cc2)CC1)C(=O)Nc1ccccc1 | -0.3 | 3 | 8.5% | 9 | 2.9 | 1
Cc1ccc(S(=O)(=O)N(C)C)cc1NC(=O)CN1CCN(Cc2ccccc2)CC1 | -0.4 | 3 | 1.3% | -2 | -2.0 | -1
Cc1ccc(OCCC(=O)OCC(=O)NCCc2ccccc2)cc1 | 1.0 | 0 | -1.0% | -13 | 0.5 | 0
Cc1ccccc1NC(=O)CSc1nc(-c2ccc(F)cc2)c2cccc(C)c2n1 | 0.2 | · | 1.0% | -1 | · | ·
CCN(CC)S(=O)(=O)c1ccc(Cl)c(C(=O)Oc2cccc(-c3cnc4ccccc4n3)c2)c1 | 0.5 | 6 | -1.7% | -7 | 3.4 | 5
Cc1cc(C)nc(NC(=O)C(c2ccccc2)c2ccccc2)n1 | 0.9 | -1 | 3.5%[38.3 µM] | 5 | -0.8 | 6
Cc1ccc(S(=O)(=O)N(C)/C(=N/S(=O)(=O)c2ccccc2)c2ccccc2)cc1 | 3.9 | 1 | 9.1%[38.3 µM] | 40 | -2.3 | -2
CN(C)c1ccc(C=c2c3ccccc3n3c2cc(-c2ccccc2)[n+]3C)cc1 | 0.2 | ? | -4.5% | 12 | -6.0 | 16
CC1(c2ccccc2)NC(=O)N(CC(=O)NC(=O)NC2CCCC2)C1=O (centres undefined) | 3.1 | 3 | -0.4% | -10 | -0.5 | 5
COc1cc(C)nc(NC(=S)N(C)C(=O)c2ccccc2)n1 | 1.1 | 11 | 7.3% | -8 | 0.2 | 1
O=C(Cn1[nH]c(=O)c2ccccc2c1=O)N1CC=C(c2ccccc2)CC1 | 0.1 | -3 | -0.7% | 23 | -1.4 | -2
Cc1cc(F)ccc1NC(=O)CCn1nc(C)c(S(=O)(=O)N2CCCCC2)c1C | 1.4 | · | 0.6% | -11 | · | ·
COc1ccc(NC(=O)c2cc(-c3ccccc3OC)on2)cc1 | 4.4 | -1 | 21%[38.3 µM] | 4 | -2.0 | 11
Cc1ccc(C)c(N2CCN(CCCNC(=O)c3cnn(-c4ccc(F)cc4)c3C3CCN(C(=O)OC(C)(C)C)CC3)CC2)c1 | -1.1 | · | 1.0% | 4 | · | ·
Cc1c(NC(=O)c2cc(=O)[nH]c(=O)[nH]2)c(=O)n(-c2ccccc2)n1C | -0.1 | -1 | 0.1% | -3 | 0.7 | 6
CN(C)c1cc(O)c(C(=S)Nc2ccccc2)c(N(C)C)c1 | 0.4 | ? | 6.0% | -2 | 2.5 | -18
Cc1ccc(NS(C)(=O)=O)c(C(=O)c2ccccc2)c1 | 1.2 | 2 | -0.2% | -9 | -1.1 | 2
CCCCN(C(=O)NC(=O)Nc1cc(C)ccc1C)S(C)(=O)=O | 1.5 | 3 | · | 28 | 0.5 | -7
COc1ccc(-n2cc(CNCc3cccnc3)c(-c3cccc(F)c3)n2)cc1 | 0.9 | 0 | -1.5% | 28 | -1.1 | -7
CCOC(=O)c1ccc(NC(=O)c2cnn(-c3ccc(C)cc3C)c2C2CCN(C(=O)OC(C)(C)C)CC2)cc1 | -0.2 | · | -1.0% | -18 | · | ·
CCC(C)(C)NC(=O)CN(Cc1cccs1)C(=O)CNS(=O)(=O)c1ccc(F)cc1 | 1.0 | 1 | 1.9% | -8 | -0.9 | 7
COc1ccc(NC(=O)c2ccccc2-c2ccccc2C(=O)O)cc1 | -1.1 | 3 | 1.8% | -16 | -0.5 | 3
CCCCn1c(N)c(N(CCOC)C(=O)COC(=O)COc2cc(C)ccc2Cl)c(=O)[nH]c1=O | -0.5 | 0 | -0.1% | 8 | -5.1 | 6
COc1ccc(CCNC(=O)CS(=O)Cc2nc(-c3cccs3)oc2C)cc1OC (centres undefined) | -0.7 | -2 | 2.3%[38.3 µM] | -12 | -0.3 | 3
O=S(=O)(NCc1cccnc1)c1ccc(Cl)c2ccccc12 | -0.1 | -2 | -1.3% | -6 | 0.6 | 4

Part of the list above in order of heavy-atom count, descending:
SMILES | TRPML1 agonist | Six1-Eya2 blk | PINK1 modulator | TRPML1 inh | D2 agonist | CtBP-E1A blk
COc1ccc(-n2cc(CNCc3cccnc3)c(-c3cccc(F)c3)n2)cc1 | 0.9 | 0 | -1.5% | 28 | -1.1 | -7
COc1ccc(NC(=O)c2ccccc2-c2ccccc2C(=O)O)cc1 | -1.1 | 3 | 1.8% | -16 | -0.5 | 3
Cc1ccc(NS(C)(=O)=O)c(C(=O)c2ccccc2)c1 | 1.2 | 2 | -0.2% | -9 | -1.1 | 2

More records follow:
SMILES | TRPML1 agonist | Six1-Eya2 blk | PINK1 modulator | TRPML1 inh | D2 agonist | CtBP-E1A blk
CC(C)CC(NC(=O)c1ccc(Cl)cc1)C(=O)OCc1cc([N+](=O)[O-])cc2c1OCOC2 (centres undefined) | 2.0 | -8 | 1.3% | -14 | -0.2 | -8
O=C(CCSCc1cnn(-c2ccccc2)c1-n1cccc1)NCc1ccc(Cl)cc1 | 6.5 | · | 2.1% | 32 | · | ·
CC(=O)N(C)c1ccc(OCC(O)COc2ccc(N(C)C(C)=O)cc2)cc1 | 0.0 | 6 | -1.0% | -4 | 2.0 | 6
COc1ccc(-c2coc3c(C(=O)NCc4cccs4)cccc23)c(C)c1 | 0.7 | -11 | 1.8% | · | -1.9 | -3
COCCN(C(=O)CCC(=O)Nc1ccccn1)C(C(=O)NCCC(C)C)c1ccc(C)cc1 (centres undefined) | -0.4 | 18 | -0.5% | 0 | -3.5 | 0
C#CCNC(=O)C1=C[C@@H](c2ccc(C(F)(F)F)cc2)[C@H](CCCO)[C@@H](OCC)O1 | 0.8 | -1 | 0.8% | 27 | -1.1 | 8
COc1cc([C@H](Cc2ccccc2)NC(C)=O)oc(=O)c1 | · | -6 | 0.8% | · | 9.3 | -11
O=c1oc2ccccc2c(O)c1/C=N/c1ncccn1 | 1.6 | 0 | · | 3 | -1.0 | 6
Cc1noc(NS(=O)(=O)c2ccc(NC(=O)CSc3nc4ccccc4[nH]3)cc2)c1C | -0.5 | -6 | · | -7 | 1.6 | -1
COc1cc(C(=O)NC2CCN(CC(=O)NC3CCCCC3)CC2)cc(OC)c1OC | 0.4 | 3 | 4.7% | 20 | -1.3 | -5
CC(=O)c1ccc(S(=O)(=O)NC2CCCCCCC2)cc1 | 1.2 | 11 | -1.0% | 3 | 4.4 | 36
CC(CO)Nc1nc(SCc2ccccc2)nc2sc3c(c12)CCC3 (centres undefined) | -0.1 | -4 | 12% | 0 | -3.0 | -11
CCc1nnc(SCC(=O)Nc2ccc(Cl)cc2F)c2cc3occc3n12 | 0.7 | · | -1.0% | 16 | · | ·
COc1ccccc1NC(=S)NCc1cccs1 | -0.4 | -3 | 0.0% | -17 | -3.3 | -20
O=C(Cc1ccccc1)Nc1sc2c(c1C(=O)Nc1cccc(Cl)c1)CCCCC2 | 1.5 | · | -0.8% | 13 | · | ·
CCc1cccc(NC(=O)CC2SC(N3CCCC3)=NC2=O)c1 (centres undefined) | 2.9 | 5 | 0.9% | 23 | -2.3 | 10
CC1CCC(NC(=O)CCS(=O)(=O)c2ccc3c(c2)oc(=O)n3C)CC1 (centres undefined) | -0.4 | 9 | 1.2% | -12 | -2.4 | 9
CCOC(=O)c1cnc2c(OC)cccc2c1Nc1ccc2c(c1)OCCO2 | -1.0 | -8 | 9.0% | 27 | 2.6 | 1
O=C(Nc1cccnc1)c1cc([N+](=O)[O-])ccc1Cl | -0.8 | 11 | 0.9% | 1 | -1.0 | ·
Cc1ccc(-c2nc(SCC(=O)c3c(N)n(C)c(=O)n(C)c3=O)n[nH]2)cc1 | 1.1 | 6 | 1.3% | 36 | -2.7 | ·
CN(C)CCNC(=O)Cn1ccc2cc(S(=O)(=O)N3CCCCC3)ccc21 | 0.1 | 3 | -0.6% | -21 | 2.2 | 1
Cc1cc(C)c2[nH]c(=O)c(CN(CC3CCCO3)S(=O)(=O)c3ccc4c(c3)OCCO4)cc2c1 (centres undefined) | 0.1 | 4 | 21%[38.3 µM] | 0 | -2.2 | -1
CN1CCN(Cc2nc3c(c(=O)n(C)c(=O)n3C)n2CCCc2ccccc2)CC1 | -1.0 | -1 | 0.0% | -6 | -2.0 | 5
CCN(C(=O)COc1ncnc2scc(-c3ccc(F)cc3)c12)C1CCS(=O)(=O)C1 (centres undefined) | -0.8 | 0 | 0.3% | -5 | 0.5 | 4
COc1ccc(N2CCN(C(=O)c3oc4ccccc4c3NC(=O)Cc3cccc(OC)c3)CC2)cc1 | -1.1 | ? | -0.2% | -11 | -3.4 | ?
CCCCOc1ccc(Cc2cnc(N)nc2N)cc1 | 1.1 | 1 | 0.6% | 6 | 1.4 | -6
Cc1ccc(OCCn2cc(/C=C/C(=O)O)c3ccccc32)cc1 | -0.6 | -4 | -0.4% | 12 | -3.4 | 1
CCc1nonc1NC(=O)c1oc2ccc(Br)cc2c1C | -0.6&1.8 | -2 | 1.0%&1.5% | 7&-22 | 3.7 | 2
Cc1ccc2cc(CCNC(=O)C3CCCC3)c(=O)[nH]c2c1 | -0.5 | 0 | 1.3% | -11 | -1.4 | 4
Cc1cc(=O)[nH]c(SC/C=C/c2ccccc2)n1 | -0.1 | -1 | -1.8%[38.3 µM] | 19 | 4.0 | 1
CCc1ccc(-n2c(=O)c3cccnc3n2CC(=O)N(CC)c2cccc(C)c2)cc1 | 0.8 | · | 2.8% | 21 | · | ·
